# ALOX12 inh = inhibitors of human 12S-lipoxygenase ALOX12 | Potency, µM (top dose mostly 108 µM), for inactives: top-dose activity change, negative = inhibition, actives largely listed as inhibitors | purified 12hLO, xylenol orange hydroperoxide absorbance | AID 1671190 | 1.1% of 580,000 active; further: potency means the concentration at half of the fitted maximal effect; on the % scale 0 is the no-effect control and ±100 the full control effect
#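 Purified human 12hLO at 150 nM in 25 mM Hepes, 0.01% Triton X-100, pH 7.0, preincubated 15 min at room temperature with compound. Reaction started with 40 uM arachidonic acid, 30 min at room temperature. Hydroperoxide measured by Fe-xylenol orange, 573/405 nm absorbance ratio.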
# POLK inh = DNA polymerase kappa (human) inhibition. 0.53% of 400,000 active. AID 588579. purified Pol kappa, fluorescent DNA synthesis assay, 10 min. Potency, µM (highest dose often 107 µM), without a hit: top-dose activity, negative = inhibition, usual class: inhibitors; further: potency means the concentration at half of the fitted maximal effect; on the % scale 0 is the no-effect control and ±100 the full control effect
# Target sequence (Q9UBT6 whole entry, looked up): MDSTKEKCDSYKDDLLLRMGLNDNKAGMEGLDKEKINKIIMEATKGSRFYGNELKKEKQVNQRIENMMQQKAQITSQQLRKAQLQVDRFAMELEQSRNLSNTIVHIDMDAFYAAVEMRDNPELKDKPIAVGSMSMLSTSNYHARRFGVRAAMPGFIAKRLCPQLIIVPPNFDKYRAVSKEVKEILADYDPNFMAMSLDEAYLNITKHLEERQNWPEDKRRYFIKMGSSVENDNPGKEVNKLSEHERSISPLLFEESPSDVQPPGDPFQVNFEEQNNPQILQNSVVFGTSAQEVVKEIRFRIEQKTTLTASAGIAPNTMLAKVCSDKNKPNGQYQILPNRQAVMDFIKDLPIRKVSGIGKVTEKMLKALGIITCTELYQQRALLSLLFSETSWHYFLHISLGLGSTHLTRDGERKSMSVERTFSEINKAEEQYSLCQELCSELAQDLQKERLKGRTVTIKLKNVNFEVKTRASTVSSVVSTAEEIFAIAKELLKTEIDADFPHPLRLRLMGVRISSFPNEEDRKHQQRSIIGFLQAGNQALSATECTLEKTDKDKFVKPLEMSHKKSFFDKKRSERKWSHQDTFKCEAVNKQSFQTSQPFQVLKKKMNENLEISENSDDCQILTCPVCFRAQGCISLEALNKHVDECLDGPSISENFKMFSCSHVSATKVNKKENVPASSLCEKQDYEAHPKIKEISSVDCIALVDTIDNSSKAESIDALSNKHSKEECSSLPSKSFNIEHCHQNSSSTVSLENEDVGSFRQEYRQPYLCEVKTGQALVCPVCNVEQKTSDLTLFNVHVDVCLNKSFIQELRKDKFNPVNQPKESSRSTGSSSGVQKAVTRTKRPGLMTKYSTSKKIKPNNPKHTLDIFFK
#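 Fluorescent qHTS in 1536-well format: enzyme (10 nM) and compound sat 15 min at room temperature before 50 nM substrate (final) was added. Signal taken at 0 and 10 min; no-enzyme buffer wells were negative controls.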
# ERG-DNA inh = inhibitors of human ERG Ets domain-DNA interaction. Potency, µM (doses to about 76.9 µM), for the others: top-dose FP activity, negative = inhibition, most hits filed as inhibitors. fluorescence polarization, His-ERG Ets domain / labelled DNA. AID 624246. P11308. 0.028% of 370,000 active; active means well fitted inhibition curve with a large enough effect in the polarisation, with a control signal flat; inconclusive means small, poorly fitted or top-dose-only effect, or effect the other way, or a change in a side signal; inactive means no such curve, though single readings can be large or run the other way; the % refers to the polarisation;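 further: polarization taken with two DNA probes labelled with fluorescein and Texas red; potency means the concentration at half of the fitted maximal effect; % of control where 0% means no effect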
#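 His-tagged ERG Ets domain (1 uM in the protein solution; 300mM KCl, 50mM Tris-HCl, 1mM EDTA, 1mM DTT, pH 7.5) received compound, then a probe mix of 5 nM fluorescein-DNA and 100nM Texas-615-DNA. Fluorescence polarization was read for both dyes.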
# Anesthetic bind = candidate novel general anesthetic via apoferritin binding. AID 485281. P02791. Potency, µM (titrated, usually from 77.5 µM), for inactives: at the top dose activity change, negative = displacement, most hits filed as inhibitors. apoferritin/1-aminoanthracene competitive binding, fluorescence. 0.074% of 350,000 active; further: potency means the concentration at half of the fitted maximal effect; on the % scale 0 is the no-effect control and ±100 the full control effect; nearly all actives have a fitted effect of over 20% in size
#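 Probe: 1-aminoanthracene (50% saturated, PBS). Protein: horse-spleen apoferritin, 10 uM. Incubation: 10 min, room temperature. Detection: 380 nm excitation, 535 nm emission. Analysis: normalized response, four-parameter Hill.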
# LDHA inh = inhibitors of human lactate dehydrogenase A | P00338 | purified LDHA, NADH/diaphorase-resazurin fluorescence; active compounds read low | activity change, % (values are at about 110 or 230 µM) | 0.15% of 480,000 active; in the data active means activity change below about -30%; inconclusive means mostly about -25% to -30%;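 further: plate controls were DMSO wells for no effect and wells without enzyme for full effect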
#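 LDH5 2 nM; NADH 0.06 mM, pyruvate 0.2 mM; 200 mM Tris pH 7.4, EDTA, Tween-20; 5 min RT. Detection: diaphorase 0.133 mg/mL + resazurin 37 µM, fluorescence ex540/em590 at 0 and 20 min; normalized to enzyme-free and DMSO wells.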
# RGS4 inhibitor = human RGS4 inhibition. P49798. Transcreener GDP fluorescence polarization, RGS4-accelerated GTP hydrolysis. Potency, µM (titrated, usually from 114 µM), without a hit: top-dose activity change, negative = inhibition, hits mostly inhibitors. 0.039% of 390,000 active. AID 504845; further: potency means the concentration at half of the fitted maximal effect; on the % scale 0 is the no-effect control and ±100 the full control effect; nearly all actives have a fitted effect of over 75% in size; some results filed as inactive show a strong effect at the top dose
#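 MLSMR compounds (23 nl, pin-transferred) preincubated 10 min at room temperature with a 500nM (2x) first reagent, then RGS4 at 900nM (2x) plus Transcreener GDP mix added; fluorescence polarization (620/688 nm) read before and after 90 min at 30 °C.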
# * hit, by the source's call; ? = inconclusive; / = no result given; & = joins results of further samples; [ ] = remark or other dose. Unless noted, the call rests on the fitted dose curve; in most records, active means well fitted curve in the direction sought with a large enough effect; inconclusive means small, poorly fitted or top-dose-only effect, or another doubt; inactive means no such curve, though single readings can be large; an effect the other way counts as inactive or inconclusive.
SMILES,ALOX12 inh,POLK inh,ERG-DNA inh,Anesthetic bind,LDHA inh,RGS4 inhibitor
O=C(Nc1ccccc1OC(F)F)c1ccc(F)cc1,0%,3%,-4%,-2%,-2,8%
Nc1c(C(=O)CSc2n[nH]c(-c3ccccc3Br)n2)c(=O)[nH]c(=O)n1C1CC1,-8%,-3%,4%,/,-1,-30%
CCOC(=O)c1cc(Br)c(=O)n2ccccc12,?,-13%,-3%,-5%,-2,-19%
CSc1nnc2c(n1)[nH]c1c(C)cccc12,-11%,-4%,/,-21%,2,-1%
Cc1cc(C)c(C#N)c(N2CCC(C(N)=O)CC2)n1,8%,-2%,-7%,-5%,-7,-5%
O=c1c2ccccc2nc2c3ccccc3c(NCCO)nn12,-7%,2%,-5%,1%,-1,-25%
O=C(Cc1ccccc1)N/N=C/C=C/c1ccccc1[N+](=O)[O-],?,-6%,-5%,-3%,-4,-13%
COc1ccc(NC(=O)CSc2nc3nc(-c4cccs4)cc(C(F)(F)F)c3c(=O)[nH]2)c(OC)c1,?,-28%,5%,-11%,6,-16%
COc1ccc(C(=O)Oc2coc(CSc3nnc(NC(=O)c4cccs4)s3)cc2=O)cc1,-21%,?,-4%,-8%,-3,11%
CCN(c1ccccc1)S(=O)(=O)c1ccc(Cl)c(NC(=O)c2ccc(=O)[nH]n2)c1,-8%,-12%,-2%,/,-8,11%
CN(C)c1oc(/C=C/c2ccccc2)nc1C#N,13%,-2%,-6%,698%[activator],-7,6%
O=C(CSc1nnc(NC(=O)C2CC(=O)N(c3ccc(F)cc3)C2)s1)NCc1ccco1 (stereo not given),?,?,10%,-11%,-3,?
CCCN(CCC)C(=S)NC(=O)c1ccc(Cl)cc1Cl,-8%,-15%,0%,-16%,1,-43%
CCOC(=O)c1c(NC(=O)CC)sc(C(C)=O)c1C,?,-5%,-9%,-18%,1,?
Cc1ccc(SCC(=O)Nc2ccc(S(N)(=O)=O)cc2)cc1,1%,-6%,2%,-9%,-2,-7%
CC(=O)c1cccc(S(=O)(=O)NC2CCSc3ccccc32)c1 (stereo not given),?,-20%,1%,5%,-6,0%
COc1ccc(NC(=O)/C(C#N)=C\c2ccc(OCc3ccc(C(=O)O)cc3)c(OC)c2)cc1,-1%,-4%,12%,-1%,-6,?
CCN1CCN(c2oc(/C=C/c3ccccc3)nc2C#N)CC1,-4%&171%,0%,5%,118%[activator],2&-9,-10%
Cc1cc(C)c(NC(=S)N2CCCC2C(=O)O)c(C)c1 (stereo not given),?,3%[60.1 µM],2%,1%,1,-32%[11.4 µM]
CCn1c(COc2ccc(C)cc2)nnc1SCC(=O)NNC(=O)c1ccc(OC)cc1,10%,-5%,0%,-10%,-6,2%
O=C(N/N=C/c1ccoc1)c1ccc(Br)cc1,-6%,-11%,-10%,-6%,-14,41%
COC(=O)C1=NN(c2ccccc2)C2C(=O)N(c3ccccc3OC)C(=O)C12 (stereo not given),-23%,2%,-2%,50%[activator],-1,22%
Cc1cccc2cc(-c3nc4ccc(C(=O)O)cc4[nH]3)c(=O)oc12,/,?,7%,216%[activator],23,4%
O=C(N[C@@H](Cc1ccccc1)C(=O)NCCc1c[nH]c2ccccc12)c1ccco1,0%,-17%,0%,0%,-2,17%
COC(=O)C1(Cc2ccc(O)cc2)OC(=O)C(O)=C1c1ccc(O)cc1 (stereo not given),-3%,?,2%,-8%,11,2%
COc1ccc(CNC(=O)CCS(=O)(=O)c2cc3c(cc2Cl)NC(=O)CO3)cc1,-12%,-14%,-9%,-2%,-2,21%
COc1ccc(/C=N/Nc2cc(C)nc(-n3nc(C)cc3C)n2)cc1,0%,-13%,-9%,-24%,1,-4%
NS(=O)(=O)c1ccc(NC(=O)COC(=O)c2ccc([N+](=O)[O-])s2)cc1,8%,-22%,-7%,0%,1,-10%[11.4 µM]
Cc1cc(C)c(NC(=O)C2CCCN2CCOC(=O)c2ccccc2)c(C)c1 (stereo not given),-14%,4%,-9%,-8%,-2,-10%
COc1ccccc1N1CCN(Cc2nc3ccccc3c(=O)n2CC(C)=O)CC1,3%,-10%,-4%,-5%,-4,?
CCOC(=O)c1c(C)[nH]c(C(=O)COc2ccc3ccc(=O)oc3c2)c1C,?,-35%,-2%,/,-3&3,0%
Cc1ccc(C)c(SCC(=O)Nc2cccc(S(=O)(=O)NC3=NCCCCC3)c2)c1,10%,-2%,-8%,-11%,-1,10%
CN(C)S(=O)(=O)NCc1ccc2c(c1)OCO2,0%,0%,1%,-4%,-3,-10%
CN(C)S(=O)(=O)c1ccc(Cl)c(NC(=O)COC(=O)/C=C/c2ccc3ccccc3n2)c1,27%,-11%,-4%,/,-3,-5%
CC(=O)N1CCc2cc(C(=O)CN3CCN(C(=O)c4ccco4)CC3)ccc21,/,-12%,-9%,?,-1,-9%
CC(C)C(NC(=O)c1c(F)cccc1F)C(=O)NNC(=O)c1ccccc1 (stereo not given),3%,2%,4%,/,-5,12%
Cc1nc2ccccc2c(=O)n1Cc1ccco1,180%[activator],3%,1%,4%,-2,26%
CC(=O)C1=C(C)Nc2ncnn2C1c1cccc(OCc2ccccc2)c1 (stereo not given),-4%[57.4 µM],-22%,-2%,-5%,-5,13%

# An excerpt from the list above:
SMILES,ALOX12 inh,POLK inh,ERG-DNA inh,Anesthetic bind,LDHA inh,RGS4 inhibitor
CCN1CCN(c2oc(/C=C/c3ccccc3)nc2C#N)CC1,-4%&171%,0%,5%,118%[activator],2&-9,-10%
Cc1cc(C)c(NC(=S)N2CCCC2C(=O)O)c(C)c1 (stereo not given),?,3%[60.1 µM],2%,1%,1,-32%[11.4 µM]
CCn1c(COc2ccc(C)cc2)nnc1SCC(=O)NNC(=O)c1ccc(OC)cc1,10%,-5%,0%,-10%,-6,2%
O=C(N/N=C/c1ccoc1)c1ccc(Br)cc1,-6%,-11%,-10%,-6%,-14,41%
COC(=O)C1=NN(c2ccccc2)C2C(=O)N(c3ccccc3OC)C(=O)C12 (stereo not given),-23%,2%,-2%,50%[activator],-1,22%
Cc1cccc2cc(-c3nc4ccc(C(=O)O)cc4[nH]3)c(=O)oc12,/,?,7%,216%[activator],23,4%
O=C(N[C@@H](Cc1ccccc1)C(=O)NCCc1c[nH]c2ccccc12)c1ccco1,0%,-17%,0%,0%,-2,17%
COC(=O)C1(Cc2ccc(O)cc2)OC(=O)C(O)=C1c1ccc(O)cc1 (stereo not given),-3%,?,2%,-8%,11,2%
COc1ccc(CNC(=O)CCS(=O)(=O)c2cc3c(cc2Cl)NC(=O)CO3)cc1,-12%,-14%,-9%,-2%,-2,21%
COc1ccc(/C=N/Nc2cc(C)nc(-n3nc(C)cc3C)n2)cc1,0%,-13%,-9%,-24%,1,-4%
NS(=O)(=O)c1ccc(NC(=O)COC(=O)c2ccc([N+](=O)[O-])s2)cc1,8%,-22%,-7%,0%,1,-10%[11.4 µM]
Cc1cc(C)c(NC(=O)C2CCCN2CCOC(=O)c2ccccc2)c(C)c1 (stereo not given),-14%,4%,-9%,-8%,-2,-10%
COc1ccccc1N1CCN(Cc2nc3ccccc3c(=O)n2CC(C)=O)CC1,3%,-10%,-4%,-5%,-4,?
CCOC(=O)c1c(C)[nH]c(C(=O)COc2ccc3ccc(=O)oc3c2)c1C,?,-35%,-2%,/,-3&3,0%
Cc1ccc(C)c(SCC(=O)Nc2cccc(S(=O)(=O)NC3=NCCCCC3)c2)c1,10%,-2%,-8%,-11%,-1,10%
CN(C)S(=O)(=O)NCc1ccc2c(c1)OCO2,0%,0%,1%,-4%,-3,-10%
CN(C)S(=O)(=O)c1ccc(Cl)c(NC(=O)COC(=O)/C=C/c2ccc3ccccc3n2)c1,27%,-11%,-4%,/,-3,-5%
CC(=O)N1CCc2cc(C(=O)CN3CCN(C(=O)c4ccco4)CC3)ccc21,/,-12%,-9%,?,-1,-9%

# Compound activity (PubChem)

# Only part of the results is shown. The share of hits here may be higher or lower than overall.
